NPYLR7 ag = activates Aedes aegypti NPYLR7 receptor. 270,000 tested, 0.15% active. activation, % at 10 µM. HEK293T NPYLR7/Galpha15, GCaMP6s calcium fluorescence; in the data active means activation above about 40%;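 further: 0% = vehicle and 100% = reference agonist at the receptor; some compounds past the cut are filed as inactive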
NPYLR7 ag max-min = second read-out of NPYLR7 ag, no call of its own (marks repeat the call); activation, %; measured here: Max-Min RFU normalised activation; some inactives read as strong as hits;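 span of the calcium signal over five minutes; 0% = vehicle and 100% = native peptide agonist; compound fluorescence can raise it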
Starred values were filed as active, the others as inactive; & = joins results of further samples.

Every second line gives: NPYLR7 ag, NPYLR7 ag max-min
- CN(C)C(=O)COc1cccc(C(=O)N2CCC3C(CCCN3C3CC3)C2)c1 (stereo not given)
    0.4, -3.6
- Cc1cnn(CCC(=O)NC2CCc3c(O)cccc32)c1 (stereo not given)
    7.2, 3.3
- CNCC(=O)Nc1c(C)n[nH]c1C
    3.9, 12.5
- CC(=O)O[C@H]1C(=O)[C@@]2(C)[C@H]([C@H](OC(=O)c3ccccc3)[C@]3(O)C[C@H](OC(=O)[C@H](O)[C@@H](NC(=O)c4ccccc4)c4ccccc4)C(C)=C1C3(C)C)[C@]1(OC(C)=O)CO[C@@H]1C[C@@H]2O
    -1.7, -6.4
- Cc1ccc(S(=O)(=O)NC(=O)c2c(C)cc3n2CCn2c(C)ccc2-3)cc1
    35.7, 29.4
- CCc1ccc2nc(C(C#N)=C3NS(=O)(=O)c4ccccc43)[nH]c(=O)c2c1
    5.5, 12.9
- COC(=O)c1sc(N)c(C(=O)OC)c1COC(=O)CCc1c(C)noc1C
    -1.8, 2.1
- CCCN1C(=O)CC(Sc2ncccc2C(=O)O)C1=O (stereo not given)
    -9.0, -18.2
- O=C(Nc1ccc(Oc2ccccc2)cc1)N1CCC2(CC1)NCCNC2=O
    6.0, 3.0
- COc1cccc(-c2nn(CN3CCOCC3)c(=S)n2C)c1
    5.6, 5.3
- O=C1CCCN1c1ccc(Cn2cccc(S(=O)(=O)N3CCCC3)c2=O)cc1
    -9.3, -9.5
- CC1CCC2(CC1)OCC(C(=O)N1CCOCC1)N2C(=O)c1ccc(F)cc1 (stereo not given)
    -2.6, 6.3
- Cc1ccc(C(C)C)c(OCC(=O)N=Nc2c(O)n(CN(C)C)c3ccccc23)c1
    2.8, 0.5
- Cc1cccc(Cn2ccnc2CN(CC(C)C)C(=O)c2ccccc2F)c1
    -7.7, -1.1
- C=Cn1cc(CN(C)Cc2nc3ccccc3n2C)cn1
    3.0, 2.2
- COCCNC(=O)C1(C)CCCN(Cc2ccccn2)C1 (stereo not given)
    -7.1, -6.6
- Cn1cccc1CC(=O)NNC(=S)NC1CCCCC1
    6.3, 3.0
- CC(C(=O)n1cc(Cl)cn1)n1cc([N+](=O)[O-])cn1 (stereo not given)
    1.8, -2.6
- Fc1ccccc1C1CC(c2ccc(Br)cc2)Nc2nc(-c3ccccc3)nn21 (stereo not given)
    -2.7, -1.8
- C=CCn1cc(-c2c(-c3ccccc3)ncn2Cc2cnc(C)cn2)c(C)n1
    -2.9, -5.1
- O=C(O)COc1ccccc1/C=N\NC(=O)CSc1nc2ccccc2[nH]1
    14.1, 15.3
- COc1nc(-c2ccc(Cl)c(Cl)c2)n(-c2ccc(NC(=O)COc3ccc(Cl)cc3)cc2)n1
    21.1, 27.1
- O=C(c1cccc2ccnn12)N1CCCC1Cn1cccn1 (stereo not given)
    27.0, 16.8
- CCCSCC(=O)N1CCCC1c1ccc(C(=O)NC2CC2)s1 (stereo not given)
    16.5, 8.2
- CCN(Cc1ccccc1)C(=O)c1cc(N)ccc1Cl
    -1.0, -3.6
- CN1CCN2CCN(S(=O)(=O)c3ccc4c(c3)OCCN4C)CC2C1 (stereo not given)
    28.8, 13.1
- COCCCN(CC(=O)N(CCc1c[nH]c2ccccc12)Cc1ccccc1)C(=O)COc1ccc(Cl)cc1
    13.0, 21.1
- Cc1sc2nc(C(C)N3CCC(C)CC3)[nH]c(=O)c2c1C (stereo not given)
    -0.1, 5.0
- COc1ccc(NC(=O)c2ccc(OC(F)(F)F)cc2)cn1
    11.5, 16.8
- Fc1cccc(N2CCc3sccc3C2)n1
    1.3, -4.7
- O=C1OC(c2cccc(Cl)c2Cl)=N/C1=C\C(Cl)=C\c1ccccc1
    -7.2, -13.6
- CC1=CC[C@@H]2CN(C(=O)c3ccn4nnnc4c3)C[C@@H]2C1
    4.5, 1.9
- Cc1ccsc1S(=O)(=O)N1CC[C@@H](c2ccc3c(c2)OCO3)[C@H](O)C1
    10.5, 8.3
- N#Cc1ccc(S(=O)(=O)Nc2c(O)cccc2F)cc1
    2.8, -9.5
- COc1ccccc1NC(=S)N1CCC(C(=O)NC(c2ccccn2)c2ccccc2C)CC1 (stereo not given)
    4.5, -2.3
- NC(=N/N=C\c1cccc(O)c1)c1nonc1N
    1.5, -1.0
- Cn1c(=O)[nH]c(=O)c2c1nc(SCCc1ccccc1)n2Cc1ccccc1
    -0.7, -0.4
- Cc1c(C)c2c(c(C)c1O)CCC(C)(C(=O)N(C)Cc1ncc[nH]1)O2 (stereo not given)
    6.3, 20.8
- COc1ccc(-c2ccc(N3CCCC(C(=O)Nc4ccc([N+](=O)[O-])cc4)C3)nn2)cc1 (stereo not given)
    -7.3, -9.9
- CN(C)c1ccc(NC(=O)c2ccccc2Cl)cc1CN(CC1CCCO1)S(=O)(=O)c1cccc(Cl)c1 (stereo not given)
    23.3, 23.2
- CC(=O)c1ccc(NC(=O)COc2cc(=O)n3cccc(C)c3n2)cc1
    -3.5, -3.1
- CC(=O)Oc1ccccc1C(=O)N1CCC(c2nc(-c3ccc(C(F)(F)F)cc3)no2)CC1
    5.4, -1.4
- Cc1[nH]cnc1-c1nccn1-c1cccc(N2CCNC2=O)c1
    4.0, 0.5
- Clc1cc(CNCc2ccc3c(c2)OCO3)cc2c1OCCCO2
    12.6, 4.5
- CCc1nc2ccc(C(=O)NCCN3CCCC3)cn2c1N(C)Cc1ccc(OC)cc1
    -7.4, -14.4

Seven consecutive records out of the list so far, for reference:
Every second line gives: NPYLR7 ag, NPYLR7 ag max-min
- Cc1ccsc1S(=O)(=O)N1CC[C@@H](c2ccc3c(c2)OCO3)[C@H](O)C1
    10.5, 8.3
- N#Cc1ccc(S(=O)(=O)Nc2c(O)cccc2F)cc1
    2.8, -9.5
- COc1ccccc1NC(=S)N1CCC(C(=O)NC(c2ccccn2)c2ccccc2C)CC1 (stereo not given)
    4.5, -2.3
- NC(=N/N=C\c1cccc(O)c1)c1nonc1N
    1.5, -1.0
- Cn1c(=O)[nH]c(=O)c2c1nc(SCCc1ccccc1)n2Cc1ccccc1
    -0.7, -0.4
- Cc1c(C)c2c(c(C)c1O)CCC(C)(C(=O)N(C)Cc1ncc[nH]1)O2 (stereo not given)
    6.3, 20.8
- COc1ccc(-c2ccc(N3CCCC(C(=O)Nc4ccc([N+](=O)[O-])cc4)C3)nn2)cc1 (stereo not given)
    -7.3, -9.9

(more compounds)
Every second line gives: NPYLR7 ag, NPYLR7 ag max-min
- CCNC(c1cccnc1)c1cc(C)cc(C)c1 (stereo not given)
    2.2, -0.5
- O=C(Nc1ccncc1)N(CCc1ccccc1F)C1CCCC1
    3.4, 0.7
- Cn1cc(-c2cc3cnc(Nc4ccc(S(C)(=O)=O)cc4)cc3n2Cc2ccccc2)cn1
    -8.9, -12.6
- CCC(C)c1ccc(Nc2nc(C)c(C)s2)cc1 (stereo not given)
    0.7, 0.4
- Cc1cc(=O)oc(C)c1C(=O)OCc1c(F)cccc1Cl
    -1.3, -0.3
- O=C(O[C@@H]1Cc2c(O)cc(O)cc2O[C@@H]1c1ccc(O)c(O)c1)c1cc(O)c(O)c(O)c1
    -5.0, -11.1
- CCOC(=O)C1(C)CCCN1C(=O)c1cc(F)cc(F)c1 (stereo not given)
    0.4, 0.1
- Cc1ccc(C(C)NCC(=O)Nc2ccc(Cl)c(C)c2)cn1 (stereo not given)
    -2.3, -2.8
- CSCCC1NC(=O)c2ccccc2N(CC(=O)N(CCC#N)CC2CCCO2)C1=O (stereo not given)
    -1.1, 6.6
- O=S(=O)(c1ccc(Br)cc1)N1CCc2nc(Cc3cccc(F)c3)nc(N3CCOCC3)c2C1
    1.4, 11.9
- CN1CCc2cccc3c2[C@H]1Cc1ccc(O)c(O)c1-3
    -2.2, -4.7
- O=C(c1nc2sccn2c1CNCCC1COc2ccccc2O1)N1CCCC1 (stereo not given)
    9.0&4.1, 4.8&7.6
- O=C(c1cc2ccccc2[nH]c1=O)N1C[C@@H]2C3CCC(CC3)[C@@H]2C1
    13.7, 6.9
- O=C(CCCNC(=O)OCc1ccccc1)NCCc1nc2ccccc2[nH]1
    3.5, 3.2
- CS(=O)c1ccc(C(=O)Nc2ccc(F)c(N3CCCC3=O)c2)cc1 (stereo not given)
    0.4, 0.1
- COC(=O)NCCOc1nc(N(C)C)nc(N(C)C)n1
    3.6, 0.2
- COc1ccc2nc(-c3ccc(C)c(NC(=O)C(C)Oc4ccc5c(c4)OCO5)c3)cn2n1 (stereo not given)
    -0.9, -1.3
- Cc1nnc2ccc(N3CCN(C(=O)CSc4nc5ccccc5s4)CC3)nn12
    1.8, 3.8
- CC(C)c1nc2cc(C(=O)NCCC(c3ccccc3)c3ccco3)ccc2o1 (stereo not given)
    8.2, -1.5
- CC(C)CCC(C)NS(=O)(=O)c1cccc(S(N)(=O)=O)c1 (stereo not given)
    0.7, -1.0
- COc1ccccc1/C=N\Nc1nc(-c2ccccc2)cc(-c2ccc(F)cc2)n1
    -10.7, -16.7
- C[C@@]12CO[C@H](c3ccccc3)C[C@@H]1C[C@H](N1CCN(Cc3ccnc4ccccc34)CC1)C2
    -0.9, 8.4
- Cn1ncc2c(NCCN3CCOC3=O)nc(C(C)(C)C)nc21
    2.7, 0.7
- CCc1ccc(-c2nn(CC(N)=O)c(=O)c3nc(C)sc23)cc1
    3.4, 1.1
- CCC(Sc1ncn[nH]1)C(=O)NCc1ccccc1 (stereo not given)
    9.2, 4.2
- CCOC(=O)c1c(NC(=O)CC(=O)Nc2sc3c(c2C(=O)OCC)CCC3)sc2c1CCC2
    -4.7, -10.1
- CCOC(=O)C1=C(C)N(CC)C(=S)NC1c1cccc(NC(=O)c2ccc(Cl)c([N+](=O)[O-])c2)c1 (stereo not given)
    11.1, 17.0
- OC(COCc1ccco1)CN(CCN1CCOCC1)Cc1ccsc1 (stereo not given)
    -1.8, 3.4
- CC(=O)c1ccc(NC(=O)C(C)Sc2nc3ccccc3c(=O)n2C2CCCC2)cc1 (stereo not given)
    3.4, 2.0
- COc1ccccc1N1CCN(C2CCCN(C(=O)Nc3ccc(F)cc3)C2)CC1 (stereo not given)
    15.8, 4.6
- COc1cn(CC(N)=O)c(CN2CCN(c3ccccc3)CC2)cc1=O
    -0.2, -0.1
- O=S(=O)(NCc1ccccn1)C1=Cc2ccccc2CC1
    8.3, 7.9
- COc1ccc(-c2c(C)nn3c(N4CCC(C)CC4)cc(C)nc23)cc1OC
    4.8, 4.8
- CC(=O)N(C)c1ccc(NC(=O)CN(C)Cc2cccc3ncccc23)cc1
    19.7, 10.1
- Cc1cc(C)n(CCCn2c(=O)[nH]c3ccccc3c2=O)n1
    0.3, -1.5
- CC(c1ccc(F)cc1)n1cnc(-c2ccccc2)c1-c1cnc[nH]1 (stereo not given)
    19.6, 10.6
- O=C(CCNC(=O)c1ccc(Cl)cc1)NCCN1C(=O)SC(=Cc2ccccc2)C1=O
    5.9, 1.7
- CCn1c(C2CCCNC2)nn(CCCS(=O)(=O)N(C)C)c1=O (stereo not given)
    1.9, -1.9
- CCN(CC)c1ccc(C(=O)Cn2c(C)c(C(=O)N(C)Cc3ccc(F)cc3)sc2=O)cc1
    9.0, 4.1
- CC(=O)Nc1ccc(NC(=O)NC2CCCn3c(C)nnc32)c(C(F)(F)F)c1 (stereo not given)
    4.7, 3.3
- COCC1(C(=O)N2CCCN(S(C)(=O)=O)CC2)CCC1
    6.4, 5.5
- O=c1oc2ccccc2cc1-c1nnc(-c2cccc(Br)c2)o1
    -1.3, -1.9
- Cc1cc2nc(CN3CCC(=O)N(CC4CC4)C(C(C)C)C3)cc(=O)n2[nH]1 (stereo not given)
    1.1, -11.2
- CC1CC(C#N)(Cc2ccccc2)C(C)CN1C (stereo not given)
    0.3, -0.3
- c1ccc2[nH]c(C3CCCN3)nc2c1 (stereo not given)
    0.7, -0.3
- COc1nc2cn(C3CCCC3)c(O)c2cc1CNC(=O)c1cnc(C)s1
    1.1, 0.0
- CCCN(CC(=O)NCC(C)C)S(=O)(=O)c1ccc(Cl)cc1
    1.6, 6.4
- Cc1c(-c2ccccc2)oc2c(C(=O)N3CCOCC3)cccc2c1=O
    1.0, 0.1
- CC(=O)N1CCN(c2ncccc2CNC(=O)c2n[nH]c3c2CCCC3)CC1
    19.4, 11.4
- O=C(NCCc1csc2nc(-c3cccs3)nn12)c1ccccc1C(F)(F)F
    24.1, 21.6
- COc1ccc(CC(=O)N2CCN(C(=O)CCN3CCc4sccc4C3c3ccccc3)CC2C)cc1 (stereo not given)
    5.9, -6.0
- CCc1cc(CN(C)C(CC)C(=O)Nc2ccccc2)on1 (stereo not given)
    -4.6, -9.7
- Cc1ccc(OCC(=O)N(C)CC2COc3ccccc3O2)c(Br)c1 (stereo not given)
    0.4, -0.9
- O=C(NCC1CCCCC1)N1CCCC2(CCNC2)C1 (stereo not given)
    0.6, -0.1
- CCCCc1ccc(C(=O)Nc2c(-c3cc(C)cc(C)c3)nc3ccccn23)cc1
    -6.7, -4.7
- COCc1nc(C(=O)N2CC(C(C)C)Nc3ccccc32)cs1 (stereo not given)
    11.9, 13.1
- CNC(=O)C1=C(C)Nn2c(CCC3CCCCC3)nnc2S1
    -8.2&-1.3, -9.2&0.3
- CCCNC(=O)C1CCC(Cn2c(=O)c3sccc3n(Cc3ccccc3)c2=O)CC1 (stereo not given)
    5.3, 3.8
- Cc1cc(N2CCN(CCOc3cccc4ccccc34)CC2)n2nc(C(F)(F)F)nc2n1
    1.1, 30.1
- CC(C)c1ccccc1NC(=O)CSc1nnc2ccccn12
    -3.3, -6.6
- COC(=O)c1ccc(OC(=O)Cn2c(C)nc3scc(-c4cccs4)c3c2=O)cc1
    0.2, -0.4
- CC(c1cccc(-c2ccc3c(c2)CCC3=O)c1)N(C)C (stereo not given)
    10.1, 8.5
- O=C1OC(c2ccc(Br)cc2)=N/C1=C\C=C\c1ccccc1
    -4.7, -10.1

Molecules from the list above with a furan ring, fused or not:
Every second line gives: NPYLR7 ag, NPYLR7 ag max-min
- CC(C)c1nc2cc(C(=O)NCCC(c3ccccc3)c3ccco3)ccc2o1 (stereo not given)
    8.2, -1.5
- OC(COCc1ccco1)CN(CCN1CCOCC1)Cc1ccsc1 (stereo not given)
    -1.8, 3.4

Not all compounds are listed (hit frequency here may not be typical).
